Compound activity deposited in PubChem by National Center for Advancing Translational Sciences (NCATS).
PMP22 txn prim = Cell-based coincidence reporter assay to measure PMP22 gene transcription in S16 Pmp22-F2sN cells - Primary screen. AID 1508649, 2021. S16 Pmp22-F2sN Schwann cells (luciferase reporters placed in the Pmp22 gene), FLuc/NLuc coincidence luminescence, 24 h. hit rate 2% among 43,000. Potency, µM (highest dose often 57.5 µM), inactives show at the top dose activity change, negative = inhibition, usual class: inhibitors; active = clear falling dose curves in both reporters; inconclusive = both reporters move, but less clearly or upward; inactive = either reporter flat; the % is the NLuc reporter signal; also: % is scaled to controls: 0 for no effect and ±100 for the full control effect; some results filed as inactive show a strong effect at the top dose
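Luminescent read-out of sequential FLuc and NLuc signals from a reporter embedded in the Pmp22 3' UTR of S16 Schwann cells, taken after 24 h compound exposure at 37C; compounds reducing both signals score as inhibitors of expression.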
HTT promoter inh = Primary qHTS for Identification of Small Molecule Inhibitors of Huntingtin Promoter Activity; HEK293 HTT promoter firefly luciferase reporter (activity 0% = vehicle and -100% = no light), 24 h; Potency, µM (highest dose often 57.5 µM), inactives show top-dose activity change, negative = inhibition, actives largely listed as inhibitors; hit rate 0.93% among 48,000; AID 1508623, 2021; active = well fitted inhibition curve with a large enough effect; inconclusive = small, poorly fitted or top-dose-only effect; inactive = no such curve, though single readings can be large or run the other way; also: nearly all actives have a fitted effect of over 50% in size
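HEK293 cells carrying firefly luciferase reporters were seeded at 2,500 per well in Opti-MEM and cultured for 24 h. They were then treated with compounds at up to 57.5 uM final for 24 h at 37 degrees C before Dual-Glo luminescence readout.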
* hit, by the source's call; u = inconclusive; x = no result given; [ ] = remark or other dose. Potency is read from the fitted curve at half-maximal effect. Random draw from the library. About 2.4% of those tested had a hit in this group.

Every second line gives: PMP22 txn prim | HTT promoter inh
> O=C1NC(=O)C(c2cnc3ccccn23)=C1c1cn2c3c(cccc13)CN(C(=O)N1CCOCC1)CC2
  x | u
> Cc1cccc(N2CCN(c3c4c(nc5nncn35)CCC4)CC2)c1C
  -18.8% | -6.0%
> Cc1cccc(N2C(=O)C(CC(=O)Nc3ccccc3)N(C3CCCCC3)C2=O)c1 (stereo not given)
  -19.9% | -27.3%
> COC(=O)c1ccc2c(c1)N(CC(=O)Nc1cccc(Cl)c1C)C(=O)c1ccccc1S2
  -27.8% | -18.1%
> CC(Oc1ccc(F)cc1)C(=O)NCC1(N(C)C)CCCCC1 (stereo not given)
  5.9% | -14.6%
> COc1cc(OC)c(NC(=O)C(C)n2c(=O)cc(-c3ccccc3)c3c(C)nn(C)c32)cc1Cl (stereo not given)
  u | u
> O=C(O)C=Cc1ccc(O)c(O)c1
  x | -3.9%
> COc1ccccc1/C=C/c1nc(C#N)c(NC(C)c2ccccc2)o1 (stereo not given)
  -11.5% | -4.7%
> CCOC(=O)C(CC)n1nnc2sc(-c3ccccc3)cc2c1=O (stereo not given)
  u | 16.5%
> Cc1cc(F)ccc1NC(=O)Cn1nc(N2CCN(c3ccccc3)CC2)ccc1=O
  3.7% | -18.0%
> CCOC(=O)c1ccc(NC(=O)CSc2ccc(-c3ccccn3)nn2)cc1
  -38.2% | -28.7%
> COc1ccccc1NC(=O)c1oc2ccccc2c1NC(=O)c1ccccc1C(F)(F)F
  u | 5.4%
> CC(=O)N1CCCc2cc(S(=O)(=O)N3CCN(c4ccccc4F)CC3)ccc21
  u | u
> Cc1nnc(N2CCN(c3ccccc3F)CC2)c2c1nnn2Cc1ccccc1Cl
  -5.1% | -5.4%
> CCc1ccc(NC(=O)CN2C(=O)C(c3ccc(C)cc3)=NC23CCCCC3)cc1
  u | -28.9%
> O=S(=O)(NCC(c1ccco1)N1CCN(c2ccc(F)cc2)CC1)c1cc(F)ccc1F (stereo not given)
  u | u
> Cn1nnc2c(NCc3ccc(Cl)cc3)ncnc21
  3.0% | -10.5%
> Cc1nc2ccn(Cc3ccccc3)c(=O)c2cc1C(=O)N1CCN(c2ccc(F)cc2)CC1
  u | -18.7%
> O=C(Nc1cc(Cl)cc(Cl)c1)c1ccc(F)c(S(=O)(=O)N2CCc3ccccc32)c1
  u | u
> CCCOc1ccccc1C1C(C(=O)Nc2ccccc2)=C(C)Nc2nnnn21 (stereo not given)
  6.6% | -25.2%
> COc1ccc(NC(=O)Cn2cc(S(=O)(=O)N3CCC(C)CC3)c3ccccc3c2=O)cc1Cl
  -0.9% | -16.6%
> CC1CCc2nc(NC(=O)Cc3ccc(Cl)cc3)sc2C1 (stereo not given)
  -5.7% | -8.2%[11.5 µM]
> COc1cc(NC(=O)CSc2nc3nc(C)c(Cc4ccccc4)c(C)n3n2)cc(OC)c1OC
  u | -34.6%
> COCCNC(=O)CSc1nc2cc3c(cc2c(=O)n1CCCCCC(=O)NCc1ccc(OC)cc1)OCO3
  10.2% | -6.9%
> Cc1ccc(NC(=O)Cn2c(=O)n(Cc3ccco3)c(=O)c3sc4ccccc4c32)c(C)c1
  -17.6% | -12.3%
> Cc1ccc2occ(CC(=O)N(Cc3ccc(N(C)C)cc3)C3CCS(=O)(=O)C3)c2c1 (stereo not given)
  -8.8% | -18.0%
> CS(=O)(=O)c1ccccc1-c1nnc(NC(=O)c2ccc3c(c2)OCCO3)o1
  -11.6% | -9.9%
> Cc1coc2ccccc2c1=O
  x | 2.0%
> COc1ccccc1C(=O)NCC(c1cccnc1)N1CCc2ccccc2C1 (stereo not given)
  -1.7% | -23.3%
> COc1ccccc1N1CCN(C(=O)c2nn(-c3ccc(C)cc3)c(=O)n(C)c2=O)CC1
  -13.4% | -24.4%

3 of the compounds above, as labelled records:
structure: Cc1coc2ccccc2c1=O
  PMP22 txn prim: x; HTT promoter inh: 2.0%
structure: COc1cc(NC(=O)CSc2nc3nc(C)c(Cc4ccccc4)c(C)n3n2)cc(OC)c1OC
  PMP22 txn prim: u; HTT promoter inh: -34.6%
structure: Cc1ccc(NC(=O)Cn2c(=O)n(Cc3ccco3)c(=O)c3sc4ccccc4c32)c(C)c1
  PMP22 txn prim: -17.6%; HTT promoter inh: -12.3%

(next part)
Every second line gives: PMP22 txn prim | HTT promoter inh
> Cc1nn(C)c2c1c(-c1ccccc1)cc(=O)n2Cc1ccccc1C#N
  u | -34.0%
> CCn1cc(C(=O)NCCc2ccccc2)c(=O)c2cc(S(=O)(=O)N3CCOCC3)ccc21
  1.6% | -14.7%
> COc1ccc(C)cc1NC(=O)CN(c1cc(C(F)(F)F)ccc1Cl)S(C)(=O)=O
  3.7% | u
> Cc1cccc(N2CCN(C(=O)C3CCCN(C(=O)c4cc5sccc5n4C)C3)CC2)c1C (stereo not given)
  -19.2% | u
> COc1cc2c(cc1NC(=O)COc1cc(C)ccc1C)oc1ccccc12
  -33.1% | -14.1%
> Cc1ccc(NC(=O)N2CC=C(c3c[nH]c4ccccc34)CC2)cc1Cl
  u | u
> COc1ccccc1-c1nc2cc(NC(=O)c3ccccc3Cl)ccc2o1
  -22.0% | 37.7%[activator]
> CCOc1ccc(CNC(=O)c2ccc(-c3nc(CSc4ccc(C)cc4)c(C)o3)cc2)cc1
  3.1% | -25.2%
> N=c1n(CCO)c2ccccc2n1Cc1ccccc1F
  u | -16.0%
> CCOc1ccc(-n2cc(-c3ccccc3)c3c(Nc4cccc(F)c4)ncnc32)cc1
  14.2% | -15.1%
> O=[N+]([O-])c1ccc(C(c2sc3nc(-c4ccco4)nn3c2O)N2CCN(Cc3ccccc3)CC2)cc1 (stereo not given)
  15.3% | 0.0%
> Cc1ccccc1NC(=O)c1c(NC(=O)c2cccs2)sc2c1CCC(C)C2 (stereo not given)
  9.5% | 3.2%
> Cc1ccc2oc(-c3ccc(Cl)cc3)c(O)c(=O)c2c1
  u | 89.1%[activator]
> CCC1CCCCN1S(=O)(=O)c1ccc2c(c1)CCCN2C(C)=O (stereo not given)
  -4.5% | u
> CC1=C(C(=O)Nc2ccc(C)cc2C)C(c2ccc(Cl)cc2)n2nc(C(=O)OC(C)C)nc2N1 (stereo not given)
  -8.1% | -6.9%
> CCN1C(=O)c2ccccc2Sc2ccc(NC(=O)COc3ccc(Cl)cc3)cc21
  14.0% | u
> CCCC(=O)Oc1c(Sc2ccc(C)cc2)c(C)nn1-c1ccccc1
  -6.8% | -16.7%
> CCOC(=O)CNC(=O)Nc1cc(C(=O)NCc2ccccc2OC)ccc1N1CCCC1
  -6.9% | -6.1%
> COc1ccc(NC(=O)Nc2cc(-c3cn4cccnc4n3)ccc2C)cc1
  -11.2% | 6.8%
> Cc1c(NS(=O)(=O)c2ccccc2)cc(C(C)C)c(O)c1S(=O)(=O)c1ccc(Cl)cc1
  -6.4% | u
> COC(=O)c1ccc(Nc2ncnc3c2cnn3-c2ccccc2)cc1
  u | -9.9%
> CCCn1c(=O)c2sccc2n2c(CCCC(=O)Nc3cccc(CC)c3)nnc12
  -14.0% | -15.6%
> Cc1ccc(Cl)cc1N1CCN(c2nc3ccccc3c3nc(-c4cccnc4)nn23)CC1
  -27.0% | -10.0%
> COc1ccc(-n2ncc(C(=O)NCc3ccc4c(c3)OCO4)c2C2CCN(C(=O)OC(C)(C)C)CC2)cc1
  1.9% | -19.8%
> O=C(CN1C(=O)COc2ccc(S(=O)(=O)N3CCOCC3)cc21)N1CCN(c2ccccc2F)CC1
  -30.3% | -12.2%
> CCn1c(SCc2ccccc2F)nc(=O)c2c(C(=O)OC)cc(C3CC3)nc21
  u | u
> Cc1ccc(C)c(NC(=O)Cn2c(=O)oc3cc(S(=O)(=O)NCc4ccccc4)ccc32)c1
  u | u
> CCN(CC)CCn1c(-c2ccccc2)csc1=Nc1ccccc1
  u | -5.0%[11.5 µM]
> O=C(NCCN1CCCCC1)c1ccc(Cn2c(SCc3ccccc3)nc3cccnc32)cc1
  -12.7% | 48.5%[activator]
> CC(C)CC(C(=O)NCCc1ccccc1)N1Cc2ccccc2C1=O (stereo not given)
  12.1% | -18.5%

Carrying on:
mol	PMP22 txn prim	HTT promoter inh
CCC(C)(C)NC(=O)C(NS(=O)(=O)c1cccs1)c1ccccc1 (stereo not given)	-4.1%	-18.0%
C=C1C(=CC=C2CCC[C@]3(C)[C@@H]([C@H](C)CCCC(C)(C)O)CC[C@@H]23)C[C@@H](O)C[C@@H]1O	x	18.7%
COCCNC(=O)CCn1nc(-c2ccc(Cl)cc2)c2ccccc2c1=O	-19.6%	-17.1%[11.5 µM]
COc1ccc(-c2nn(CC(=O)NCc3ccccc3)c3c2cnc2ccc(F)cc23)cc1	u	45.4%[activator]
COc1ccc(Nc2cc(C(=O)NCCCN(C)C3CCCCC3)c3ccccc3n2)cc1	u	u
O=C(NCC(c1cccnc1)N1CCN(Cc2ccccc2)CC1)C(=O)Nc1cccc(F)c1 (stereo not given)	-62.1%	12.3%
COc1ccc(OC)c(NC(=O)c2cc3c(=O)n4cccc(C)c4nc3n2C)c1	u	-5.2%
O=C(N[C@H](CO)[C@H](O)c1ccc([N+](=O)[O-])cc1)C(Cl)Cl	x	-1.2%
Cc1cc(C)cc(NC(=O)Nc2nnc(N(C)C3CCCCC3)s2)c1	-2.1%	-13.7%
Cc1cc(C)cc(NC(=O)N2CCN(C)c3ncccc32)c1	-0.4%	-3.8%
CCOC(=O)c1c(NC(=O)c2ccc(S(=O)(=O)N3CCC(C)CC3)cc2)sc2c1CCN(C)C2	17.8µM*	u
Cc1cccc(N(C)C(=O)Cn2cnc3nc4c(cc3c2=O)CCCC4)c1	2.1%	-26.7%
CC(=O)c1ccc(NC(=O)CSc2nc(-c3ccc(C)cc3)nc3c2c(=O)n(C)c(=O)n3C)cc1	u	1.0%
CCc1ccc2oc(-c3cc(NC(=O)c4cc(OC)c(OC)c(OC)c4)ccc3O)nc2c1	u	9.6%
Cc1ccc(NC(=O)N2CCc3cc(S(=O)(=O)N4CCC(C)CC4)ccc32)cc1F	8.91µM*	-17.7%
COc1ccc(CNS(=O)(=O)c2cnc(N)nc2)cc1	-35.0%	-4.6%
CCOc1ccccc1NC(=O)N1CCc2c(sc3c2CCCC3)C1c1ccccc1 (stereo not given)	u	-29.6%
CCN(c1ccccc1)c1nnc(NC(=O)Nc2ccc(Br)cc2)s1	2.9%	21.2%
CC(C)c1ccc(NC(=O)CN2C(=O)CCc3cc(S(=O)(=O)N4CCOCC4)ccc32)cc1	-33.1%	-29.3%
O=C(Nc1ccc2nc(SCC(=O)N3CCCc4ccccc43)sc2c1)c1ccccc1	u	u
COc1cc(NC(=O)CCc2c(C)nc3c(c(C)nn3-c3ccccc3)c2C)cc(OC)c1OC	-31.8%	-15.3%
COc1ccccc1NC(=O)CSc1nc(-c2ccc(C(C)(C)C)cc2)c(C#N)c(=O)[nH]1	-11.1%	1.4%
O=C(Cn1cc(SCc2cccc(F)c2)c2ccccc21)N1CCCC1	u	0.8%
O=C(CCCCn1c(=O)c2ccccc2n(CC(=O)Nc2cccc(C(F)(F)F)c2)c1=O)NCc1ccc2c(c1)OCO2	u	u
CC1N=C2c3ccccc3N=C(SCC(=O)NCCc3ccccc3)N2C1=O (stereo not given)	-32.3%	-22.4%
CCCCOc1ccc(CNC(=O)C2CCN(c3nnc(-n4cccc4CNc4ccc(C)cc4)s3)CC2)cc1	u	u
CSc1ccc(CCNC(=O)C(C)n2c(C)c3cnn(-c4ccccc4)c(=O)c3c2C)cc1 (stereo not given)	-24.5%	u
CCOC(=O)c1c(C)c(C(=O)NCCc2ccc(OC)cc2)c(C)n1CC	-30.9%	-5.8%
COc1ccc(S(=O)(=O)c2cn(Cc3ccccc3)c3ccc(OC)cc3c2=O)cc1	-11.0%	u
CC(NC(=O)C(=O)Nc1c2c(nn1-c1ccccc1)CSC2)c1ccccc1 (stereo not given)	u	-19.9%
CCc1ccc(NC(=O)CSc2nc(C)cc(COC)c2C#N)cc1	-25.4%	-10.1%
Cc1cccc(C(c2sc3nc(-c4ccco4)nn3c2O)N2CCN(c3ccccc3F)CC2)c1 (stereo not given)	11.2%	9.3%
Cc1ccc(-n2ncc(C(=O)NCc3cccs3)c2C2CCN(C(=O)OC(C)(C)C)CC2)cc1	u	u
Cc1onc(-c2ccc(Br)cc2)c1C(=O)Nc1ccc(Br)cc1F	u	14.1%
COc1cccc(CNC(=O)CSc2nc3ccccc3nc2Cc2ccccc2)c1	-16.4%	-18.4%
COc1ccc(-c2onc(C)c2C)cc1S(=O)(=O)N1CCN(c2ccc(Cl)cc2)CC1	-2.3%	-4.7%
CCc1ccc(NC(=O)C(CC)n2c(=O)c(C(F)(F)F)nc3ccccc32)cc1 (stereo not given)	u	-9.1%
